Screens as filed in PubChem.
gsp agonist: agonists of gsp mutant (McCune-Albright syndrome); gsp mutant cells, cAMP HTRF, 30 min; control for the full effect not named in the record; Potency, µM (doses to about 76.9 µM), for inactives: at the top dose activation (cAMP increase), usual class: activators; 340,000 compounds, 0.13% hits; active = well fitted activation curve with a large enough effect; inconclusive = small, poorly fitted or top-dose-only effect, or another doubt; inactive = no such curve, though single readings can be large or run the other way; cell line not stated here;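 also: phosphodiesterase inhibitor Ro 20-1724 added with compounds to block cAMP breakdown; potency is read from the fitted curve at half-maximal effect; nearly all actives have a fitted effect of over 60% in size; about a fifth of the inactives were tested at one dose only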
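Cells in DMEM/10% FBS with G418 were pretreated with compounds in DMSO plus […] (300 uM stock) for 30 min at 37C. cAMP was measured by HTRF (cAMP-d2 plus anti-cAMP antibody-K) after 30 min at room temperature.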
CtBP-E1A blk: blocks the CtBP interaction with E1A; 340,000 compounds, 0.49% hits; AlphaScreen GST-E1A/His-CtBP binding, 1536-well; hits give low values; control for the full effect not named in the record; activity change, % (test concentration not listed); in the data active means activity change below about -65%; inconclusive means about -30% to -65%; inactive means above about -30%; also: % is scaled to controls: 0 for no effect and ±100 for the full control effect
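AlphaScreen with 125 nM GST-E1A and 125 nM His-CtBP (5X stocks) in Tris pH 8.0, 300 mM NaCl, BSA, Tween 20, TCEP. Compounds preincubated 2 h at 37 deg C, then glutathione donor/nickel acceptor beads added for 1 h at 37 deg C in dark.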
D2 PAM: positive allosteric modulators of human D2 dopamine receptor | P14416 | DiscoveRx D2 beta-arrestin cells, luminescence, 90 min; 100% = 57 uM dopamine signal | potentiation, % (test concentration not listed) | 360,000 compounds, 0.23% hits | AID 624464; active = potentiation of 50% or more; inconclusive = 30% to 50%; inactive = 30% or less;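 also: compound concentration not given in the record; tested on top of an EC20 dose of dopamine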
Target sequence (P14416 whole entry, looked up): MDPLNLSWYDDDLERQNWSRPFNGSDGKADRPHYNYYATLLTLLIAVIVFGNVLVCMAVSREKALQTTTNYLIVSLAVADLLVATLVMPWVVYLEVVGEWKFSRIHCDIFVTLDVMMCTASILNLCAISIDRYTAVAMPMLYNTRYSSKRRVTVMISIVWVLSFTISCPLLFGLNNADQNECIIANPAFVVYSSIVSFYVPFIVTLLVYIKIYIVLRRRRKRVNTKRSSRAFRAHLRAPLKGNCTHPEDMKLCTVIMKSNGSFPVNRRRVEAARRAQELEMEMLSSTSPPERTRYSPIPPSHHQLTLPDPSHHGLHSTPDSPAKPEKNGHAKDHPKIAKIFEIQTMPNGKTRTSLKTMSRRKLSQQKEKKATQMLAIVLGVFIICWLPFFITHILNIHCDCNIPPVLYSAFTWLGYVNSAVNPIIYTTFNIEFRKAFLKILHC
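PathHunter D2 cells, attached overnight at 37 deg C, received compound in DMSO plus dopamine at EC20 (50 nM final) for 90 min at 37 deg C. Beta-arrestin recruitment was read as luminescence after 1 h with detection reagent at ambient temperature.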
D2 agonist: human D2 receptor agonism in beta-arrestin assay. AID 624465. DiscoveRx PathHunter D2 beta-arrestin, luminescence, 90 min; 100% = 57 uM dopamine signal. P14416. activation, % (test concentration not listed). 360,000 compounds, 0.084% hits; in the data active = activation above about 40%; inconclusive = about 15% to 40%; inactive = below about 15%; also: compound concentration not given in the record; the text of the record calls up to 30% inactive
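Agonist mode: compounds alone added to overnight-plated D2 PathHunter cells for 90 min at 37 C, with 57 uM final dopamine (EC100) defining full response. Beta-arrestin recruitment detected by chemiluminescent reagent, read after 1 h at ambient temperature.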
gsp antagonist: antagonists of gsp mutant (McCune-Albright syndrome) | Potency, µM (series often up to 76.9 µM), inactives show at the top dose activity change, negative = inhibition, hits mostly inhibitors | 340,000 compounds, 0.4% hits | gsp-mutant cells, cAMP HTRF, 30 min; control for the full effect not named in the record | AID 624288; active = falling curve of any shape with a large fitted effect; inconclusive = falling curve, mostly with a smaller effect; inactive = flat or rising curve; cell line not stated here;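 also: intracellular cAMP measured with PDE inhibitor Ro 20-1724 present during compound exposure; potency is read from the fitted curve at half-maximal effect; % is scaled to controls: 0 for no effect and ±100 for the full control effect; nearly all actives have a fitted effect of over 65% in size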
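G418-selected cells were plated in DMEM/10% FBS for 16-24 h at 37C, then treated with compounds plus the PDE inhibitor […] (300 uM solution added) for 30 min at 37C. Intracellular cAMP was measured by HTRF after 30 min lysis at room temperature.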
Six1-Eya2 blk: blocks human Six1 binding to Eya2; 360,000 compounds, 0.56% hits; AlphaScreen GST-Six1/His-Eya2 binding, biochemical; hits give low values; control for the full effect not named in the record; AID 651725; activity change, % (no concentration beside the values); Q15475+O00167; in the data active = activity change below about -65%; inconclusive = about -30% to -65%; inactive = above about -30%; also: % is scaled to controls: 0 for no effect and ±100 for the full control effect
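Six1/Eya2 binding was read as AlphaScreen signal after compounds were pinned into GST-Six1 plus His-tagged Eya2 (5X stock 250/500 nM) in pH 8.0 Tris/NaCl/TCEP buffer, beads added, then incubated 1 h, 37 C, dark.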
* marks the source's active call; other numbers are inactive results; u = inconclusive; x = not tested or not shown; [ ] = another dose, or the depositor's remark.

Values in the order: gsp agonist | CtBP-E1A blk | D2 PAM | D2 agonist | gsp antagonist | Six1-Eya2 blk
1. O=C(CCNC(=O)c1ccc(Br)cc1)NNC(=O)c1ccccc1
→ -9%[15.4 µM] | 15 | -7 | -0.4 | 7% | 2
2. Cc1cccc(NC(=O)CSc2nnc(-c3ccccc3)n2N)c1
→ u | 2 | 0 | -1.3 | -4% | -2
3. CCSc1nnc(NC(=O)CCNC(=O)c2ccccc2Cl)s1
→ -5%[15.4 µM] | -11 | 4 | -5.6 | 12% | 0
4. CCN(CC)S(=O)(=O)c1ccc(NC(=O)c2cc(-c3ccccc3)nc3ccccc23)cc1
→ -9%[15.4 µM] | 1 | -3 | -4.2 | 1% | -15
5. CCN(CC)c1ccc(C(=O)N/N=C/c2ccc(OC)cc2OC)cc1
→ -6%[15.4 µM] | -20 | -16 | -11 | 1% | 8
6. O=C(CSc1ccc(Cl)cc1)N1CCN(c2ccc(Cl)cc2[N+](=O)[O-])CC1
→ 6% | 3 | 1 | 1.3 | u | u
7. Cc1cc(C)n2nc(C(=O)N/N=C/c3ccco3)nc2n1
→ -15% | x | -23 | -3.4 | 1% | -3
8. NC1=NC(c2ccc(F)cc2)n2c(nc3ccccc32)N1 (stereo not drawn)
→ -16% | 0 | 8 | -0.5 | 4% | 3
9. CCCN1Cc2cccc(C(=O)Nc3ccc(CC)cc3)c2C1=O
→ 26% | -5 | -22 | -2.7 | -13% | -2
10. COC(=O)CN1C(=O)C(C)(C)Oc2ccc(C(=O)NC3CC3)cc21
→ -3% | 3 | -8 | -3.7 | 3% | 5
11. O=C(CN1CCN(Cc2ccccc2)CC1)N1N=CCC1c1ccccc1 (stereo not drawn)
→ u | -15 | -16 | -2.8 | 12% | 0
12. CC1CCc2c(sc3ncnc(NCCCOC(C)C)c23)C1 (stereo not drawn)
→ 10% | -3 | -7 | -5.6 | -20% | 1
13. CCOc1ccccc1C1C(C(=O)Nc2ccccc2OC)=C(C)Nc2nnnn21 (stereo not drawn)
→ 4% | -3 | -3 | -2.9 | -6% | -8
14. COCCNC(=O)CCCn1c(=O)c2cc(OC)c(OC)cc2n(CC(=O)Nc2ccc(F)cc2)c1=O
→ 1% | x | 7 | 5.5 | -1% | 2
15. COc1ccc(S(=O)(=O)NNC(=O)Nc2ccc(C)cc2C)c(OC)c1
→ 20%[15.4 µM] | 6 | -15 | 1.3 | -2% | -11
16. O=C(Nc1nc(-c2ccccn2)cs1)c1ccc2c(c1)OCCO2
→ u | u | -2 | 8.3 | -17% | -82*
17. O=C1CC(N(O)c2ccccc2)C(=O)N1c1cc(Cl)cc(Cl)c1 (stereo not drawn)
→ -50%[inhibitor] | -12 | 24 | 2.2 | -10% | -7
18. COc1ccc(NC(=O)c2cc(S(=O)(=O)N3CCOCC3)ccc2N2CCOCC2)cc1
→ 0% | 2 | 9 | -5.4 | -14% | -2
19. OCC[C@@H]1C[C@H](O)[C@@H](O)[C@@]2(OCc3cc(C(F)(F)F)ccc32)O1
→ -39% | 6 | 6 | 0.3 | x | -3
20. CCC(=O)N(Cc1ccccc1)c1ccccn1
→ -9% | 3 | 28 | 2.1 | -3% | 6

Results in sequence from the entries so far:
Compounds 10–17 in gsp agonist, in turn: -3%, u, 10%, 4%, 1%, 20%[15.4 µM], u, -50%[inhibitor]
Compounds 10–17 in Six1-Eya2 blk, in turn: 5, 0, 1, -8, 2, -11, -82*, -7

Single records, from the list above.
Record of O=C1CC(N(O)c2ccccc2)C(=O)N1c1cc(Cl)cc(Cl)c1 (stereo not drawn) → gsp agonist: -50%[inhibitor]; CtBP-E1A blk: -12; D2 PAM: 24; D2 agonist: 2.2; gsp antagonist: -10%; Six1-Eya2 blk: -7
Record of COc1ccc(NC(=O)c2cc(S(=O)(=O)N3CCOCC3)ccc2N2CCOCC2)cc1 → gsp agonist: 0%; CtBP-E1A blk: 2; D2 PAM: 9; D2 agonist: -5.4; gsp antagonist: -14%; Six1-Eya2 blk: -2

Going on with the list:
Values in the order: gsp agonist | CtBP-E1A blk | D2 PAM | D2 agonist | gsp antagonist | Six1-Eya2 blk
21. O=C(Nc1ccccc1)c1cc(C2CCCCN2C(=O)c2cccs2)on1 (stereo not drawn)
→ x | -2 | -15 | -4.4 | x | 0
22. N#CCCn1c(SCC(=O)NCC2CCCO2)nc2ccccc21 (stereo not drawn)
→ 10% | 9 | -15 | -0.8 | 19% | 0
23. CC1(C)Cc2ccccc2/C(=C/C(=O)c2ccccc2)N1
→ -15% | -12 | 1 | -2.0 | -28% | -19
24. COc1ccccc1NC(=O)COC(=O)Cn1c(C)csc1=O
→ -13% | -19 | -16 | -2.9 | x | 14
25. CSc1nnc(CNC(=O)c2ccccc2)n1-c1cccc(C)c1
→ 25% | 4 | -8 | -3.1 | 6% | -15
26. CCCCN1C(=O)C(=O)N(CC(=O)Nc2sc(C)c(CC)c2C(=O)OCC)C1=O
→ 7%[15.4 µM] | -3 | 1 | -0.2 | -15% | -11
27. CC(=O)Nc1ccc(S(=O)(=O)NCCc2csc(-c3cccnc3)n2)cc1
→ u | 0 | -2 | 0.5 | 16% | -11
28. Cc1ccc2cccc(OCc3nnc(SCC(=O)O)n3C)c2n1
→ 9%[15.4 µM] | 0 | -4 | -2.5 | 5% | 2
29. CCOc1ccc(C(=O)NCCO)cc1
→ -13% | x | -2 | -2.3 | -19% | 3
30. CCCCN(C=O)c1c(CC)nc2ccc(C(=O)N3CCN(C(=O)c4ccco4)CC3)cn12
→ x | 8 | -3 | -3.2 | x | 2
31. N#Cc1cccnc1N1CCN(C(=O)c2ccco2)CC1
→ u | 2 | -1 | -0.9 | 2% | 11
32. CCCCNC(=O)COC(=O)CCC(=O)c1cccs1
→ -10%[15.4 µM] | 2 | -9 | -4.0 | -8% | 0
33. O=C(Nc1c(C(=O)N2CCOCC2)oc2ccccc12)c1cccc([N+](=O)[O-])c1
→ u | -3 | -13 | -3.7 | -9% | 0
34. COc1ccc(N2CCN(S(=O)(=O)c3cc(Br)cnc3N)CC2)cc1
→ 19% | -16 | -2 | -1.2 | 12% | 1
35. CN(CC(=O)Nc1ccccc1Cl)C(=O)CSC(=S)N1CCCC1
→ 6% | 5 | 16 | 5.1 | 7% | 4
36. Cc1ccc(C#CC[N+]2(CC#Cc3ccc(C)cc3)CCCCC2)cc1
→ -73%[inhibitor] | -10 | -4 | -1.5 | -2% | 3
37. Cc1cc(Cl)ccc1NC(=O)CSc1n[nH]c(N)n1
→ 2% | 4 | -11 | -0.4 | 12% | 7
38. Cc1c(Cl)cccc1N(CC(=O)O)S(C)(=O)=O
→ 1% | 7 | 11 | -3.2 | 8% | 3
39. Cc1ccc(S(=O)(=O)N2CCC(C)CC2)cc1C(=O)NCc1ccccn1
→ -8%[15.4 µM] | 0 | -4 | 0.6 | -28% | 22
40. COc1ccc(Cc2nnc(SCC(=O)Nc3cc(Cl)ccc3OC)[nH]c2=O)cc1
→ -27% | 0 | -9 | -1.6 | -23% | -2

Six1-Eya2 blk: what is marked active above
Values in the order: gsp agonist | CtBP-E1A blk | D2 PAM | D2 agonist | gsp antagonist | Six1-Eya2 blk
16. O=C(Nc1nc(-c2ccccn2)cs1)c1ccc2c(c1)OCCO2
→ u | u | -2 | 8.3 | -17% | -82*

(further entries)
Values in the order: gsp agonist | CtBP-E1A blk | D2 PAM | D2 agonist | gsp antagonist | Six1-Eya2 blk
41. O=C(OCCOc1ccccc1F)c1cccc(S(=O)(=O)N2CCOCC2)c1
→ -28% | 4 | 0 | 2.1 | -10% | 27
42. Nc1nc(SCC(=O)NCc2ccccc2)[nH]c(=O)c1NC(=O)c1ccccc1F
→ -30%[inhibitor] | 15 | 0 | -2.5 | 11% | 20
43. CCOC(=O)C(C(=O)Nc1ccccc1)C1CCCCC1 (stereo not drawn)
→ -3% | 4 | 13 | -2.8 | -7% | 4
44. O=C(O)CCC(NS(=O)(=O)c1ccc(N2CCCC2=O)cc1)C(=O)O (stereo not drawn)
→ -38%[inhibitor] | 7 | -4 | 0.2 | 6% | 0
45. CCc1cccc2c(C(=O)COC(=O)c3nn(C)c(=O)c4ccccc34)c[nH]c12
→ -15% | 7 | -19 | -1.1 | u | 3
46. CSc1ccccc1C(=O)C1CCCN(C(=O)CCN2CCCO2)C1 (stereo not drawn)
→ 0% | 5 | -7 | -3.6 | -3% | -5
47. Cc1cc(C)cc(NS(=O)(=O)c2cnc(Cl)c(Cl)c2)c1
→ 1% | 9 | 2 | 1.4 | -12% | 5
48. CN(C)/C(=N\S(=O)(=O)c1ccccc1)c1ccc(F)cc1
→ u | 5 | -6 | -4.6 | 4% | -1
49. CCCCc1cc(=O)oc2cc(OCC(=O)NCc3ccccn3)c(Cl)cc12
→ 29% | 3 | 1 | -5.4 | 11% | -1
50. Cc1ccccc1C(=O)NCCSc1ccccc1
→ u | 0 | 0 | 0.4 | 4% | 16
51. C[C@H](CCC(=O)O)[C@H]1CC[C@H]2[C@@H]3C(=O)C[C@@H]4CC(=O)CC[C@]4(C)[C@H]3CC(=O)[C@]12C
→ x | 0 | -3 | 2.5 | -8% | -3
52. O=C1C(=Cc2cccc(Cl)c2)CCc2ccccc21
→ x | 6 | 1 | 2.6 | x | 2
53. COc1ccc(-c2ncnc(C(F)(F)F)c2-c2csc(C)n2)c(O)c1
→ u | 5 | -8 | -0.9 | 6% | -2
54. CCN(CC)S(=O)(=O)c1ccc(N2CCOCC2)c(NC(=O)c2ccc3ccccc3c2)c1
→ 19% | 0 | -8 | -1.2 | -15% | 1
55. CC(C)C(c1nnnn1C(C)(C)C)N1CCN(Cc2cccnc2)CC1 (stereo not drawn)
→ -5% | 0 | -2 | -3.2 | -1% | 9
56. O=C(NCCS(=O)(=O)N1CCN(c2ccccc2)CC1)c1ccc(Br)o1
→ -1%[15.4 µM] | 1 | -6 | -5.7 | -6% | -10
57. COc1cccc(CNC(=O)N2CCN(c3ccccc3)CC2)c1
→ -7%[15.4 µM] | -8 | -3 | 3.1 | -10% | 1
58. COC(=O)c1cc(OC)c(OC)cc1NC(=O)Cn1nnc(-c2ccccc2Cl)n1
→ -9% | 3 | -3 | 1.2 | 10% | 2
59. Cc1nc(NC(=O)C2CC2)sc1C(=O)Nc1ccccc1
→ 19%[15.4 µM] | 2 | -6 | 5.4 | -22% | -6
60. CCCOc1ccc(C(=O)OCCN2CCCCC2)c(O)c1
→ 4%[15.4 µM] | 2 | -16 | -8.3 | 5% | -5
61. Cc1ccc(/C=C/C(=O)NCc2ccccn2)o1
→ u | 0 | 3 | 0.1 | -25% | -2

Molecules from the list above with a nitro group on carbon (two):
Values in the order: gsp agonist | CtBP-E1A blk | D2 PAM | D2 agonist | gsp antagonist | Six1-Eya2 blk
6. O=C(CSc1ccc(Cl)cc1)N1CCN(c2ccc(Cl)cc2[N+](=O)[O-])CC1
→ 6% | 3 | 1 | 1.3 | u | u
33. O=C(Nc1c(C(=O)N2CCOCC2)oc2ccccc12)c1cccc([N+](=O)[O-])c1
→ u | -3 | -13 | -3.7 | -9% | 0
